# Assay outcomes from PubChem.
# SARS PLpro yeast: inhibitors of SARS-CoV papain-like protease in yeast; Potency, µM (doses to about 32.9 µM), for inactives: top-dose activity, positive = growth rescue; AID 485353; 330,000 tested, 0.19% active; S. cerevisiae expressing SARS-CoV PLpro, growth rescue; control for the full effect not named in the record; also: 0% is about no effect; nearly all actives have a fitted effect of over 55% in size; growth read by luminescence after 48 h
# Cruzain noTriton: inhibitors of Trypanosoma cruzi cruzain without detergent; 200,000 tested, 2.3% active; purified cruzain, Z-FR-AMC fluorescence, no detergent; Potency, µM, inactives show max response, negative = inhibition, most hits filed as inhibitors; active = well fitted curve in the direction sought with a large enough effect; inconclusive = small, poorly fitted or top-dose-only effect, or another doubt; inactive = no such curve, though single readings can be large; an effect the other way counts as inactive or inconclusive;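 also: plate controls were enzyme without inhibitor for no effect and buffer without enzyme for full effect; nearly all actives have a fitted effect of over 40% in size; top concentration of the series not given in the record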
# Target sequence (P25779 123-467 limits assumed): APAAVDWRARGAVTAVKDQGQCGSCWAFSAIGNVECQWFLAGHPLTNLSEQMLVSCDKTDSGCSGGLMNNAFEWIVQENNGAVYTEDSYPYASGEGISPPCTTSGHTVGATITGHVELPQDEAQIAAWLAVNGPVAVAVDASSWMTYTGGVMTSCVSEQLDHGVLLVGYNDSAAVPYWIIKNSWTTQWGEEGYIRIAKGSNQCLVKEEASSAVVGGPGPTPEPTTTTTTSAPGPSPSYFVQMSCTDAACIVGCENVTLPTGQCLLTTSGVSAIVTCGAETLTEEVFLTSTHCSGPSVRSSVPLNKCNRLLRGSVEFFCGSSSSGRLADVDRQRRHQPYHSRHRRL
#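 Purified cruzain at 1.5 nM, pre-incubated 15 min with compound at room temperature in 100 mM sodium acetate pH 5.5, 5 mM DTT, 0.00005% Triton X-100. Reaction started with 2 uM Z-FR-AMC; AMC fluorescence increase over 60 s gives rate.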
# NS1 function inh: blocks influenza NS1 protein function. Potency, µM (highest dose often 46.1 µM), without a hit: at the highest dose activity, positive = more growth. S. cerevisiae slowed by influenza A NS1, growth recovery by OD600. 270,000 tested, 0.4% active; also: actives are rising curves; nearly all actives have a fitted effect of over 50% in size
#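 A cell-based growth assay was used: compounds that relieve NS1-induced slow growth of budding yeast raise OD600. Assay medium was yeast nitrogen base with ammonium sulphate and -URA supplement, pH 6.0, with 2% galactose.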
# RE007 growth inh: less growth of the S. pombe RE007 Vpr strain; S. pombe RE007 Vpr strain, BacTiter-Glo ATP luminescence, 24 h; control for the full effect not named in the record; Potency, µM (doses to about 92.2 µM), inactives show top-dose activity change, negative = less growth; 360,000 tested, 0.21% active; AID 651644; active = well fitted falling curve with a large enough effect; inconclusive = small, poorly fitted or top-dose-only effect; inactive = no such curve, though single readings can be large or run the other way;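 also: % is scaled to controls: 0 for no effect and ±100 for the full control effect; nearly all actives have a fitted effect of over 50% in size; the assay follows cell death caused by Vpr and the record does not say whether a fall means rescue or toxicity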
#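 Fission yeast RE007 carrying one integrated HIV-1 vpr copy, seeded at OD 0.01 in PMG+AL medium with 23 nL pinned compound. Grown 24 h at 30 degrees; viability read by BacTiter-Glo luminescence after 5 min.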
# StopGo reporter: lowers the luciferase signal of an FMDV 2A StopGo reporter | human cells with a luciferase reporter of 2A StopGo recoding; control for the full effect not named in the record | Potency, µM (titrated, usually from 57.9 µM), without a hit: at the top dose signal change, negative = less light | 410,000 tested, 1.2% active | AID 1159524; active = well fitted falling curve with a large enough effect; inconclusive = small, poorly fitted or top-dose-only effect; inactive = no such curve, though single readings can be large or run the other way; tested in HEK293T cells; also: % is scaled to controls: 0 for no effect and ±100 for the full control effect; nearly all actives have a fitted effect of over 45% in size; luciferase light after 4 h
# Cruzain inh Det: cruzain (T. cruzi) inhibition with detergent. AID 1478. Potency, µM, for the others: max response, negative = inhibition, hits mostly inhibitors. P25779. 200,000 tested, 0.43% active. purified cruzain, Z-FR-AMC fluorescence, 0.01% Triton; active = well fitted curve in the direction sought with a large enough effect; inconclusive = small, poorly fitted or top-dose-only effect, or another doubt; inactive = no such curve, though single readings can be large; an effect the other way counts as inactive or inconclusive;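 also: plate controls were neutral wells for no effect and buffer without enzyme for full effect; nearly all actives have a fitted effect of over 40% in size; top concentration of the series not given in the record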
#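 Detergent-containing run (0.01% Triton X-100) in acetate buffer pH 5.5 with 5 mM DTT: enzyme at 1.5 nM final, 15 min compound preincubation at room temperature, then 2 uM Z-FR-AMC substrate. Activity taken as 60 s fluorescence increase at 360/450 nm.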
# Marburg entry inh: Marburg virus entry inhibition; Marburg virus pseudotyped entry inhibition, cell reporter; control for the full effect not named in the record; about a third of the inactives were read at about 46 µM; Potency, µM (top dose mostly 37.8 µM), for inactives: at the highest dose activity change, negative = inhibition, usual class: inhibitors; 300,000 tested, 1.8% active; AID 540276; active = well fitted inhibition curve with a large enough effect; inconclusive = small, poorly fitted or top-dose-only effect, or effect the other way; inactive = flat fitted curve, though single readings scatter; tested in HEK293 cells; about a fifth of its hits are not listed in these tables; also: % is scaled to controls: 0 for no effect and ±100 for the full control effect; luciferase read-out
# Lassa entry inh: inhibitors of Lassa virus binding or cell entry; Potency, µM (titrated, usually from 37.9 µM), for the others: top-dose activity change, negative = inhibition, hits mostly inhibitors; Lassa virus pseudotype entry inhibition, cell reporter; control for the full effect not named in the record; 300,000 tested, 1.2% active; AID 540256; active means well fitted inhibition curve with a large enough effect; inconclusive means small, poorly fitted or top-dose-only effect, or effect the other way; inactive means flat fitted curve, though single readings scatter; tested in HEK293 cells; also: % is scaled to controls: 0 for no effect and ±100 for the full control effect; nearly all actives have a fitted effect of over 50% in size; luciferase read-out
# An asterisk follows results filed as active; ? = inconclusive; . = no result given; & = joins results of further samples; [ ] = another dose, or the depositor's remark. Unless noted, calls follow the shape of the dose curve; as a rule, active means well fitted rising curve with a large enough effect; inconclusive means small, poorly fitted or top-dose-only effect; inactive means no such curve, though single readings can be large or run the other way. Potency is read from the fitted curve at half-maximal effect. The order is random; 4.7% or so of the library scored in one or more.
cpd | compound | SARS PLpro yeast | Cruzain noTriton | NS1 function inh | RE007 growth inh
1 | CN1C(=O)c2ccc(NC(=O)c3ccc(Cl)cc3Cl)cc2C1=O | -4% | . | -17% | -8%
2 | COCCNC(=O)COc1ccc(Nc2ccccc2)cc1 | 0% | 2% | -9% | 8%
3 | Cc1ccc(NC(=O)c2cc(-c3ccc(Br)s3)nc3ccccc23)cc1F | . | 4% | . | .
4 | Cc1ccc(NC(=O)C(c2ccccc2)N2CCN(CC(=O)NC3CC3)CC2)cc1 (centres undefined) | 2% | . | . | -9%
5 | CCOc1ccc(CNC(=O)c2cc(=O)[nH]c3ccc(S(=O)(=O)N4CCCC4)cc23)cc1 | . | -8% | . | .
6 | COc1ccc(S(=O)(=O)NCc2ccc(C(=O)NCCCN3CCCC(C)C3)cc2)cc1 (centres undefined) | 5% | . | 2% | 11%
7 | COc1ccc2c(Cl)c(-c3nnco3)sc2c1 | -2% | -12% | -14% | -17%
8 | Cc1ccc(N(Cc2ccccc2)C(=O)c2cccc(F)c2)cc1 | -1% | . | 7% | 2%
9 | Cc1ccc([C@@H]2[C@@H]3C(=O)N(C)C(=O)[C@@H]3[C@]3(C)C(=O)N(Cc4ccc(-c5ccccc5)cc4)CC(=O)N23)o1 | -1% | . | 4% | -9%
10 | Cc1ccc(NC(=S)N(CCN(C)C)Cc2cc3cc(C)cc(C)c3[nH]c2=O)cc1 | -7% | 14% | 7% | .
11 | CCOC(=O)c1ccccc1NCN1C(=O)CSC1=O | 5% | -13% | 0% | 2%
12 | CC1Cc2ccccc2N1C(=O)CCNS(=O)(=O)c1ccc2c(c1)CCC(=O)N2 (centres undefined) | 11% | 0% | -7% | -3%

cpd | StopGo reporter | Cruzain inh Det | Marburg entry inh | Lassa entry inh
1 | 30% | . | . | .
2 | 16% | 1.8% | 15% | 4%
3 | -7% | -2.4% | -11%[46.1 µM] | -16%[46.1 µM]
4 | 21% | . | -24% | -26%
5 | -14% | 0.5% | . | 26%[46.1 µM]
6 | 8% | . | ? | -7%[46.1 µM]
7 | 34%[activator] | -7.3% | 19% | 9%
8 | 15% | . | -17%[46.1 µM] | 11%[46.1 µM]
9 | -13% | . | . | .
10 | -15% | 2.5% | -14% | 15%
11 | -18% | -3.5% | 1% | 6%
12 | -24% | 4.4% | -29% | -1%

# Next section.
cpd | compound | SARS PLpro yeast | Cruzain noTriton | NS1 function inh | RE007 growth inh
13 | COc1ccc(N2CCN(C(=O)[C@@H](NC(=O)c3cc(OC)cc(OC)c3)C(C)C)CC2)cc1 | -2% | . | -6% | 4%
14 | CN(C)/C=C/C(=O)c1ccc2noc(-c3ccc(F)cc3)c2c1 | -5% | . | 5% | 42%
15 | Cc1cccc(-c2nnc(SCC(=O)NC3CCCCC3)o2)c1 | . | -1% | . | .
16 | COC(=O)c1cc(Cl)c(NC(=O)c2ccco2)cc1OC | . | ? | -19% | -2%
17 | O=C(CC(C(=O)O)c1ccccc1)Nc1ccccc1 (centres undefined) | -11% | -4% | 10% | 0%
18 | CC(=O)N(C(C)=O)N1C(=O)c2cccc3c(N4CCOCC4)ccc(c23)C1=O | 1% | . | . | 5%
19 | COc1ccccc1N(C)S(=O)(=O)c1ccc(Cl)c(C(=O)NCc2cccnc2)c1 | 0% | . | . | 4%
20 | Cc1cccc(C)c1OCc1nnc(SCC(=O)Nc2cccc(C(=O)N3CCOCC3)c2)n1C | 0% | 2% | -19% | 4%
21 | Cc1c(C)c2ccc(OCC(=O)NCCCn3ccnc3)c(C)c2oc1=O | 7% | . | -12% | -10%
22 | CS(=O)(=O)c1nc(S(=O)(=O)c2ccc(Cl)cc2)c(N2CCC3(CC2)OCCO3)s1 | -3% | . | -12% | 0%
23 | CCOC(=O)Cc1nnc(NC(=O)c2ccccc2OCC)s1 | 7% | 7% | -5% | 0%
24 | COCc1c(Br)c(C)nc2sc3c(=O)[nH]nnc3c12 | -2% | . | -4% | 2%

cpd | StopGo reporter | Cruzain inh Det | Marburg entry inh | Lassa entry inh
13 | 6% | . | -2%[46.1 µM] | -1%[46.1 µM]
14 | -29% | . | -24% | -24%
15 | 10% | -2.4% | 1%[46.1 µM] | -2%[46.1 µM]
16 | -3% | -5.0% | -8% | -14%
17 | -24% | -1.6% | ? | 23%
18 | 0% | . | 7% | 6%
19 | -17% | . | 22% | -1%[46.1 µM]
20 | -27% | -0.5% | 5% | -16%
21 | 0% | . | . | .
22 | 0% | . | . | .
23 | -9% | -1.8% | -4%&-4% | 2%
24 | -20% | . | ? | -10%[46.1 µM]

# An excerpt of these results, in transposed form:
18	CC(=O)N(C(C)=O)N1C(=O)c2cccc3c(N4CCOCC4)ccc(c23)C1=O
19	COc1ccccc1N(C)S(=O)(=O)c1ccc(Cl)c(C(=O)NCc2cccnc2)c1
20	Cc1cccc(C)c1OCc1nnc(SCC(=O)Nc2cccc(C(=O)N3CCOCC3)c2)n1C
21	Cc1c(C)c2ccc(OCC(=O)NCCCn3ccnc3)c(C)c2oc1=O

compound no. | 18 | 19 | 20 | 21
SARS PLpro yeast | 1% | 0% | 0% | 7%
Cruzain noTriton | . | . | 2% | .
NS1 function inh | . | . | -19% | -12%
RE007 growth inh | 5% | 4% | 4% | -10%
StopGo reporter | 0% | -17% | -27% | 0%
Cruzain inh Det | . | . | -0.5% | .
Marburg entry inh | 7% | 22% | 5% | .
Lassa entry inh | 6% | -1%[46.1 µM] | -16% | .

# (list continues)
cpd | compound | SARS PLpro yeast | Cruzain noTriton | NS1 function inh | RE007 growth inh
25 | CCOc1ccc2nc(N3CCOCC3)nc(C)c2c1 | -1% | 13% | -11% | -24%
26 | c1ccc2c(NCC3CCCO3)nc(N3CCOCC3)nc2c1 (centres undefined) | 0% | . | -2% | -8%
27 | O=S(=O)(c1ccc(Cl)c2ccccc12)N1CCCC1 | 0% | . | -2% | -6%
28 | COc1cc(OC)nc(NC(=O)NS(=O)(=O)c2ccc(OC(F)(F)F)cc2)n1 | 2% | 5% | 2% | -3%
29 | CC(C)c1ccc(N2C(=NC(=O)C3CC3)SC3CS(=O)(=O)CC32)cc1 (centres undefined) | 1% | . | 3% | -6%
30 | O=C(CN(c1ccccc1)S(=O)(=O)c1ccccc1[N+](=O)[O-])Nc1ccccc1C(=O)N1CCOCC1 | 1% | . | -10% | -12%
31 | Cc1cc(C)nc(Nc2nc(=O)c3ccccc3s2)n1 | -6% | -2% | -1% | -14%
32 | COc1ccc(C(C(=O)NCc2ccccc2)N(Cc2cccs2)C(=O)c2cnccn2)cc1 (centres undefined) | -1% | 11% | 12% | 10%
33 | CC(=O)Nc1nc2c(ccc3ccccc32)s1 | 14% | . | -7% | -2%
34 | COc1cccc(CN(C)C(=O)Cc2c[nH]c3ccccc23)c1 | -3% | . | 8% | -6%
35 | CN(C)CCCNC(=O)N1c2ccccc2C=Cc2ccccc21 | 0% | . | 17% | -9%
36 | COC(=O)C1=C(N)Oc2cc(C)n(C)c(=O)c2C1c1ccc(Cl)c(Cl)c1 (centres undefined) | 3% | -12% | -8% | 20%

cpd | StopGo reporter | Cruzain inh Det | Marburg entry inh | Lassa entry inh
25 | 30%[activator] | -8.9% | ? | ?
26 | -21% | . | . | .
27 | -9% | . | 5%[46.1 µM] | -7%[46.1 µM]
28 | 1% | 3.7% | 3% | -15%
29 | -1% | . | 4%[46.1 µM] | ?
30 | -1% | . | ? | 9%
31 | 22% | -3.2% | ? | 10%
32 | 7% | 0.2% | -13% | ?
33 | 38%[activator] | . | . | .
34 | 37%[activator] | . | ? | 14%[46.1 µM]
35 | -4% | . | 2% | 0%
36 | -9% | -8.1% | ? | -7%

# New compounds follow
cpd | compound | SARS PLpro yeast | Cruzain noTriton | NS1 function inh | RE007 growth inh
37 | COc1ccc(NC(=O)NCC2CCN(Cc3ccccc3F)CC2)c(OC)c1 | . | 5% | . | .
38 | O=C(NCC(c1cccnc1)N1CCOCC1)C1CCCCC1 (centres undefined) | -2% | -3% | 2% | -1%
39 | Cc1ccc(S(=O)(=O)N2CCOCC2)cc1NC(=O)Cn1cc(C(F)(F)F)cc(Cl)c1=O | -1% | -8% | 8% | 26%
40 | O=c1oc2ccc3ccccc3c2cc1-c1nc2ccccc2o1 | . | . | . | ?
41 | COc1ccccc1NS(=O)(=O)c1cccc(NC(=O)c2nc3nc(C)cc(C)n3n2)c1 | 1% | ? | 16% | 7%
42 | COc1ccc(NC(C)=O)cc1CNC(=O)CN1CCOCC1 | . | . | 10% | 6%
43 | CC1CN(C(=O)COC(=O)c2ccc(Cl)c(S(=O)(=O)N3CCCCC3)c2)CC(C)O1 (centres undefined) | -1% | . | . | 2%
44 | CC(C)CCN1C(=O)c2ccc(-c3nc4ccccc4c(=O)o3)cc2C1=O | -3% | 9% | -5% | 8%
45 | Cc1ccnc(NC(=O)c2sc3cc(Cl)ccc3c2Cl)c1 | 19% | 2% | 1% | 12%
46 | O=C(c1ccccc1)[C@H]1[C@H](c2ccccc2)[C@@]2(N=C(c3ccccc3)OC2=O)C2c3ccccc3C=NN21 (some centres undefined) | 2% | 10µM* | 2.5µM* | .
47 | CCOC(=O)C(=NC1CCS(=O)(=O)C1)NNc1ccc(Br)cc1 (centres undefined) | -4% | . | . | 42%
48 | Cc1cnc(NC(=O)CSc2nc3ccccc3c(=O)[nH]2)s1 | 12% | -6% | -4% | -10%

cpd | StopGo reporter | Cruzain inh Det | Marburg entry inh | Lassa entry inh
37 | 16% | 0.8% | -23%[46.1 µM] | 10%[46.1 µM]
38 | 8% | -2.2% | 29% | -3%
39 | -14% | -1.2% | 17% | -2%
40 | 30% | . | ? | ?
41 | 8% | 5.4% | -11%[46.1 µM] | 12%
42 | 2% | . | 7% | 5%
43 | -8% | . | -19% | 13%[46.1 µM]
44 | . | 1.4% | 8% | ?
45 | 16% | 0.8% | -3% | 21%
46 | . | -7.5% | -4% | .
47 | 24% | . | ? | 14%[46.1 µM]
48 | -19% | -2.7% | -22%[46.1 µM] | -8%
